Bioassay records as filed in PubChem BioAssay.
E coli growth: inhibitors of Escherichia coli growth. AID 1053175. 330,000 compounds, 0.21% hits. OD600 absorbance (test concentration not listed). OD600, 23 h; hits give low values;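 active means OD600 absorbance below the run mean of sample wells minus 3.6 SD, in any replicate, cut at about 0.56 in these data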;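 further: stock transfer was 300 nL into about 60 µL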
UCH37 DUB inh: inhibitors of human deubiquitinating enzyme UCH37 | Q9Y5K5 | purified proteasome/UCH37, Ub-AMC cleavage fluorescence | inhibition, % (test concentration not listed) | 330,000 compounds, 0.33% hits | AID 588478;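 active means mean of two replicates above 20%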;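 further: 0% = compound-free wells with enzyme and 100% = wells lacking proteasome; stock transfer was 100 nL into about 20 µL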
Target sequence (Q9Y5K5 whole entry, looked up): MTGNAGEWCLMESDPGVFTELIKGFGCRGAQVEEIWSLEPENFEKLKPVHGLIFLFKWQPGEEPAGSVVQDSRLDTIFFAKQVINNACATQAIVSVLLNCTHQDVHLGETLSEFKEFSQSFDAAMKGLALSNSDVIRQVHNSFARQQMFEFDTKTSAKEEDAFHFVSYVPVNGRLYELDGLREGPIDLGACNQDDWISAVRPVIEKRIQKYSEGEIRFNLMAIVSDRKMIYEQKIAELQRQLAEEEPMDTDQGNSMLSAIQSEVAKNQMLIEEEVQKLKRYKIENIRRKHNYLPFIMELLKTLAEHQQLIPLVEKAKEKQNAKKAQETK
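System: Proteasome-associated human UCH37 deubiquitinase; Input: 0.15 nM proteasome in added enzyme buffer; Also added: Ub-AMC substrate from 1 µM stock; Incubation: 30 min compound-proteasome preincubation then 25 min substrate reaction, room temperature; Detection: fluorescence, ex 355 nm, em 460 nm; Read-out: % inhibition of Ub-AMC cleavage fluorescence; Benchmarks: no-proteasome and no-compound wells.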
FGF22 binding: binders of recombinant human FGF22 by thermal shift; Q9HCT0; SYPRO orange fluorescence; percent of sucrose octasulfate shift, DMSO zero; calls only at 9.99 µM; 340,000 compounds, 1.5% hits; AID 651658;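 active means melting point raised past a set limit in the mean and every replicate; three in four hits are not shown here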
Ecoli rRNA inh: inhibits bacterial ribosomal RNA function over humanized ribosomes. E. coli WT GFP vs humanized-ribosome RFP mutants, fluorescence, 24 h; hits give low values; DMSO median 0, no signal -100. GFP signal change (wild-type ribosome), % (test concentration not listed). 350,000 compounds, 1.6% hits. AID 720706;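 active means significant combined selectivity score with lowered wild-type GFP, culture density cut under 30%, mutant RFP and density less affected; inactive means any of these conditions unmet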; further: one replicate is shown; some compounds called inactive have numbers as strong as hits
HNF4A DNA FP: change in binding of human HNF4 alpha to DNA; 360,000 compounds, 0.3% hits; activity change, % at 10 µM; HNF4a-FITC DNA binding, fluorescence polarization, 1 h; in the data active means activity change above about 30%, passing the limit was not always enough;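 further: controls were the assay level and a saturating level of protein; the project sought stronger binding though the title names inhibitors; some compounds called inactive have numbers as strong as hits; positive values seem to mean higher polarization but the record does not say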
ALR inh: blocks human ALR sulfhydryl oxidase activity; P55789; purified ALR, DTT oxidation, H2O2 HRP-luminol luminescence; inhibition, % (no concentration beside the values); 290,000 compounds, 3.8% hits; AID 485317;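 active means mean and each replicate at 75% or more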;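 further: stock transfer was 7.5 nL into about 7.5 µL; 0% = neutral wells and 100% = wells with inactivated enzyme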
Target sequence (P55789 whole entry, looked up): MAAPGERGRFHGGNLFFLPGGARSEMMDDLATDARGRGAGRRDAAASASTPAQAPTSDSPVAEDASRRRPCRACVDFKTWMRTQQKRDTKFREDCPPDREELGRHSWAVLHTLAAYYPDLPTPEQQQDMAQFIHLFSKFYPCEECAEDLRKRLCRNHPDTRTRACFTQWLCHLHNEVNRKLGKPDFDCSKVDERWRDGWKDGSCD
B2AR ag: human beta-2 adrenergic receptor agonism by FAP; response, % (concentration not given with the values); 340,000 compounds, 0.43% hits; AID 504454; P07550; Am2.2-beta2AR cells, FAP receptor internalization, flow cytometry; reference of the scale not given here;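 active means response above a set limit, near 3 SD of response in nonfluorescent compounds, cut at about 42% in these data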;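 further: stock transfer was 100 nL into about 11 µL; a reference agonist was the positive control; negative values mostly stem from fluorescent compounds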
Target sequence (P07550 whole entry, looked up): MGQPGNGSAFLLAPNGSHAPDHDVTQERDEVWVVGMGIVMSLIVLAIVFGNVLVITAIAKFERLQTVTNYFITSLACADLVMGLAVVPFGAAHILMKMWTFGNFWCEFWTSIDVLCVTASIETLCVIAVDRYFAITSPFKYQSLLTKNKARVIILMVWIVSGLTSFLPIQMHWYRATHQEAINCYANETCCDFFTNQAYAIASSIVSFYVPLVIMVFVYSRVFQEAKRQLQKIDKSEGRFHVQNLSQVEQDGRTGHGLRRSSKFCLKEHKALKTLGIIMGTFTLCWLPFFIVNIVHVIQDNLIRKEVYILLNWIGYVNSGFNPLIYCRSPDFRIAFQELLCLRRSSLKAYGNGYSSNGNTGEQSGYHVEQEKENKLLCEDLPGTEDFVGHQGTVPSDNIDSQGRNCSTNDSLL
Ecoli rRNA inh OD600: second read-out of Ecoli rRNA inh, no call of its own (marks repeat the call); OD600 change, %; measured here: OD600 growth;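 optical density of the mix in the first replicate; 0 = DMSO median and -100 = no signal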
Ecoli rRNA inh RFP: also measured in Ecoli rRNA inh; calls as there; RFP signal change, %; measured here: RFP humanized mutant strains;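 first replicate; 0 = DMSO median and -100 = no signal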
Starred values were filed as active, the others as inactive; i = inactive; . = no result given. An excerpt (hit frequency here may not be typical).

canonical_smiles	E coli growth	UCH37 DUB inh	FGF22 binding	Ecoli rRNA inh	Ecoli rRNA inh OD600	Ecoli rRNA inh RFP	HNF4A DNA FP	ALR inh	B2AR ag
COc1ccc(Cn2c(O)c(/C=C3/C=CC=N3)c(=O)[nH]c2=O)cc1	0.68	7.8	i	10	6	2.7	1.9	.	-5
COc1ccc2nc(Cl)c(C3CC(c4ccco4)=NN3C(=O)CCC(=O)O)cc2c1 (stereo not drawn)	0.69	6.7	.	.	.	.	0.4	5	7
COC(=O)c1sccc1NC(=O)c1ccccc1Br	0.7	3.9	i	0	3	1.5	-0.1	1	13
CC(=O)CC(=O)Nc1nc(C)cc(C)n1	0.74	2.9	i	21	15	-0.5	-1.1	-2	2
CCn1c(C)nc2cc(C#N)ccc21	0.68	0.9	i	14	-10	-0.7	2.6	4	1
CCOc1ccc2nc(S(N)(=O)=O)sc2c1	0.68	3.6	i	.	.	.	4.1	-14	5
CCOc1ccc(C2C(C#N)=C(N)Oc3n[nH]c(C)c32)cc1OC(=O)C1CC1 (stereo not drawn)	0.75	-0.8	.	.	.	.	5.4	40	3
Cc1cc(C2C(=O)C(C(=O)c3ccc(Cl)cc3)C(=O)CC2(C)C)on1 (stereo not drawn)	0.69	1.6	.	.	.	.	3.2	4	-3
COc1ccc(NC(=O)c2c3c(nc4ccccc24)CCC3)cc1	0.78	0.9	.	.	.	.	0.5	4	10
CCOC(=O)c1cccc(C(=O)Nc2nc3ccc(OC)cc3s2)n1	0.68	-58	.	8	18	-3.2	2.8	-1	28
O=C(Cn1c(=O)n(Cc2ccccc2)c(=O)c2ccccc21)NCc1ccco1	0.71	6.0	.	.	.	.	4.0	-8	3
NC(=S)N/N=C/c1ccccc1OC(=O)c1cc2ccccc2oc1=O	.	.	i	9	5	2.4	2.0	46	0
O=C(NNC(=O)c1ccc([N+](=O)[O-])cc1)c1ccc(F)cc1	0.65	4.7	i	.	.	.	4.1	-7	8
O=C(O)c1ccc(CSc2nnc(SCc3ccccc3)s2)cc1	0.69	2.4	.	.	.	.	1.1	-2	-3
CCCCCCCCCCCCN1[C@@H](CC(=O)OC)c2cc(F)ccc2S1(=O)=O	.	3.4	i	6	1	-4.3	1.7	-2	1
COc1ccc(C(=O)OCC(=O)NC(=O)NC2CCCC2)c(O)c1	0.66	2.0	i	13	11	-1.7	2.0	.	-4
Cc1ccc(C(C(=O)Nc2ccc(C(C)C)cc2)N(C)C(=O)c2ccc(=O)[nH]c2)cc1 (stereo not drawn)	0.71	6.9	i	8	10	0.5	-1.1	-4	2
Nc1nonc1-n1nnc(C(=O)N/N=C/c2ccccc2Cl)c1-c1ccccc1	.	.	i	1	3	0.4	1.6	-4	7
Cc1cc(C)n2nc(CNS(=O)(=O)c3ccc(F)cc3)nc2n1	0.7	4.4	i	12	13	-2.1	-1.9	-2	3
Cc1cccc2cc(CN(C(=O)c3cnccn3)C3CCCCC3)c(Cl)nc12	0.62	3.2	i	-21	-15	-4.3	0.1	-13	7
CN(C(=O)c1ccco1)c1nc(-c2ccc(F)cc2)cs1	0.68	-3.5	i	16	10	0.4	-1.8	1	0
O=C1CCCN1CC(O)CS(=O)(=O)Cc1ccccc1Cl (stereo not drawn)	0.67	1.1	i	-1	8	0.5	0.5	-4	-7
CO/N=C/c1ccc(Sc2ccccc2)c([N+](=O)[O-])c1	.	.	.	.	.	.	-1.0	-11	1
Cc1ccc(S(=O)(=O)N2CCOCC2)cc1NC(=O)COC(=O)COc1ccc(C#N)cc1	.	.	i	13	14	1.2	-4.1	.	.
Nc1cccc(CN2CCCC2)c1	0.7	1.5	i	.	.	.	-1.4	.	7
COc1ccc(OCC(=O)Nn2c(-c3ccc(C)cc3)nc3ccccc3c2=O)cc1	0.68	3.4	.	.	.	.	1.1	22	-3
CCn1c2ccccc2c2nnc(SCc3ccc(C(=O)OC)o3)nc21	0.66	0.5	.	.	.	.	-1.2	-2	-5
Cn1c(NC(=O)c2cccs2)cc(=O)n(C)c1=O	0.75	12	i	5	7	-0.8	-3.4	0	3
Nc1ccc(Cc2ccc(N)c(C(=O)O)c2)cc1C(=O)O	0.73	2.1	i	15	11	-6.3	-2.4	4	9
COc1ccc(NC(=O)CSc2nnc(C3CCCCC3)n2N)cc1OC	0.65	0.1	i	4	9	-2.0	3.2	32	-7
Cc1ccc(C2NC(=O)c3c(sc(C)c3C)N2)c(O)c1 (stereo not drawn)	0.61	4.3	.	.	.	.	4.1	92*	12
COc1ccc(C(=O)Cn2c(Br)nc3c2c(=O)n(C)c(=O)n3C)cc1	0.68	0.0	i	4	-7	-1.5	-1.8	.	6
Cc1cccn2c(=O)c(/C=C(\C#N)C(=O)NC3CCS(=O)(=O)C3)c(N3CCC(C)CC3)nc12 (stereo not drawn)	.	-4.4	.	.	.	.	1.8	-1	-13
Cc1ccc(N2CCN(S(=O)(=O)c3ccc(F)c(C)c3)CC2)c(C)c1	0.73	1.4	.	.	.	.	3.0	-3	3
CS(=O)(=O)N1CCCC(C(=O)Nc2ccc(F)c(F)c2)C1 (stereo not drawn)	.	.	i	12	13	-0.1	-4.7	11	-281
CCOCCCNCC(=O)NCC1CCCCC1	0.67	4.5	i	14	7	2.2	2.7	-22	-4
CC(=O)O[C@]1(C(C)=O)CCC2C3CCC4=C/C(=N/OCC(=O)O)CC[C@]4(C)C3CC[C@@]21C (stereo partly drawn)	.	.	i	-10	-6	4.9	1.9	0	8
COc1ccc(NS(=O)(=O)c2ccc3c(c2)N(C(C)=O)CCS3)cc1	0.7	2.8	i	-4	-11	-2.4	-0.2	-2	3
O=S(=O)(Nc1cccc(-c2cn3cccnc3n2)c1)c1ccccc1	0.7	i	.	.	.	.	8.3	-1	-6
S=C(NCc1cccs1)Nc1cccc(Cl)c1Cl	0.64	2.3	.	.	.	.	0.8	.	-4
CC(=O)NC(CC(=O)Nc1ccc(S(=O)(=O)NC2=NCCCCC2)cc1)c1ccccc1 (stereo not drawn)	0.66	5.5	i	4	8	-0.4	4.2	-8	3
C/C(=N\S(=O)(=O)c1ccc(C)cc1)N1CCN(S(=O)(=O)c2ccccc2)C1C(C)C (stereo not drawn)	.	.	i	-27*	-13*	2.9*	-0.7	-4	10
CCOC(=O)c1cc(S(=O)(=O)N2CCN(c3ccccc3OC)CC2)cn1C	0.64	1.2	i	3	-3	-0.1	4.8	9	-7
Cc1cccc(OCC(=O)NNS(=O)(=O)c2ccccc2F)c1	0.69	1.6	i	1	5	-2.3	-5.2	.	3
COC(=O)[C@@]12CCCN1[C@H](c1ccc(-c3ccc(OC)cc3)c(OC)c1)[C@H]1C(=O)N(C)C(=O)[C@H]12	.	3.1	i	4	-4	2.7	6.3	-11	9
Cc1oc(-c2ccc(Cl)cc2)nc1CN1CCC(C(=O)N2CCN(Cc3ccccc3)CC2)CC1	0.74	1.5	i	-13	-25	6.9	0.7	-54	5
COc1cccc(-c2c(NC(=O)c3ccco3)oc3ccc(Cl)cc3c2=O)c1	0.65	5.9	i	-5	2	-2.6	-0.3	5	4
Cc1ccc(OCC(=O)Nc2ccc3c(c2)C(=O)NC3=O)cc1	0.66	1.6	i	0	6	-2.8	-0.9	-10	2
O=C(Nc1ccc(F)cc1)C1CCC(CNc2c(N3CCCCC3)c(=O)c2=O)CC1 (stereo not drawn)	0.71	1.0	i	12	-10	-2.8	1.1	-3	3
CCCCOC(=O)Nc1ccc(C(N)=O)cc1	0.71	0.3	.	.	.	.	-3.8	-3	9
CCOc1ccc(S(=O)(=O)N2CCN(CCNS(=O)(=O)c3ccc(C)cc3)CC2)cc1	0.64	4.1	i	-9	-9	5.0	0.3	.	1
Cc1cc(C)cc(N(C(=O)c2ccccn2)C(C(=O)NC2CCCCC2)c2ccncc2)c1 (stereo not drawn)	0.69	1.8	i	8	14	3.5	8.7	.	10
COc1cc(OC)c2ccc(=O)oc2c1C(CCN1CCCC1)c1ccc(N(C)C)cc1 (stereo not drawn)	0.66	1.0	.	.	.	.	3.6	98*	-4
O=C(OCC(=O)N1CCN(C(=O)c2ccco2)CC1)c1cc(F)c(F)cc1Cl	0.68	0.6	i	-1	5	-3.2	7.4	-2	-5
CCCn1c(N)c(C(=O)CSc2ncnc3sccc23)c(=O)n(C)c1=O	0.72	5.2	i	3	0	-0.4	7.1	.	2
O=CNc1cc(-c2ccsc2)cn2c(-c3ccccc3)cnc12	.	.	i	14	27	5.8	9.8	.	.
CS(=O)(=O)N(CC(=O)N1CCc2ccccc2C1)c1ccc(Br)cc1	0.69	1.8	i	-22*	-11*	0.7*	2.8	-4	-7
CN(CC(=O)Nc1ccc(Cl)c(Cl)c1)CC(=O)N1CCCCCC1	.	.	i	-20	-54	-0.1	-0.2	.	.
c1ccc(-c2noc(-c3ccc4c(c3)OCO4)n2)cc1	0.74	4.6	i	4	1	-1.8	0.0	-8	7
CN(Cc1c(F)cccc1Cl)C(=O)CNC(=O)c1ccc2c(c1)OCO2	0.67	4.1	i	-2	-2	-1.8	2.3	1	-5

(more compounds)
canonical_smiles	E coli growth	UCH37 DUB inh	FGF22 binding	Ecoli rRNA inh	Ecoli rRNA inh OD600	Ecoli rRNA inh RFP	HNF4A DNA FP	ALR inh	B2AR ag
COC(=O)c1sc(NC(=O)CSc2nnc(Cn3nnc4ccccc43)n2C)nc1C	0.68	0.5	i	9	14	7.7	1.2	-8	-8
O=C(CN1C(=O)CCC1=O)Nc1ccc(S(=O)(=O)N2CCOCC2)cc1	0.68	3.3	.	.	.	.	4.7	-4	6
O=C(Nc1ccc(S(=O)(=O)N2CCCC2)cc1)c1cc(F)c(F)cc1Cl	0.64	2.8	i	-4	-16	-3.8	1.4	-2	-12
C=CCNC(=O)c1sc(-c2ccccc2)nc1C	0.71	3.5	.	6	-2	-1.7	-2.4	-8	3
CCSc1nc(-c2ccccc2)c2cc(Cl)ccc2n1	0.72	-2.4	i	.	.	.	-2.5	-2	-13
C[C@@H]1COC(=O)[C@@H](CC(=O)OC(C)(C)C)C/C=C\C[C@@H](CC(=O)N[C@H](CO)Cc2ccccc2)C(=O)N1	.	5.2	i	9	3	2.6	1.3	4	-9
COc1ccc(CCNC(=O)c2cccc(S(=O)(=O)N3CCCCC3)c2)cc1	0.71	-0.1	.	0	-1	0.2	2.6	-20	-4
COc1cccc(C(=O)Nc2nnc(C(C)C)s2)c1	0.69	2.2	.	.	.	.	1.2	2	0
Cc1ccc(C(=O)Nc2c(C)n(C)n(-c3ccccc3)c2=O)cc1S(=O)(=O)N1CCOCC1	0.75	1.8	.	.	.	.	2.5	-10	2
COc1ccc(C(=O)COC(=O)CN2CC(=O)Oc3ccccc32)cc1Br	0.72	4.3	.	.	.	.	-5.6	-6	5

An excerpt of these results, with two lines to a compound:
Value order: E coli growth	UCH37 DUB inh	FGF22 binding	Ecoli rRNA inh	Ecoli rRNA inh OD600	Ecoli rRNA inh RFP	HNF4A DNA FP	ALR inh	B2AR ag
CCSc1nc(-c2ccccc2)c2cc(Cl)ccc2n1
    0.72	-2.4	i	.	.	.	-2.5	-2	-13
COc1ccc(CCNC(=O)c2cccc(S(=O)(=O)N3CCCCC3)c2)cc1
    0.71	-0.1	.	0	-1	0.2	2.6	-20	-4
